Bioassay records: PubChem BioAssay, several laboratories
Mtb hypoxia rep – inhibitors of hypoxia-regulated fluorescent reporter in Mycobacterium tuberculosis. fluorescence inhibition, % (no concentration beside the values). AID 1159583. hit rate 0.1% among 300,000. M. tuberculosis hypoxia-regulated fluorescent reporter, fluorescence;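 active = 35 to 45% if threefold the growth effect, above 45% if 1.5-fold the growth effect; inactive = the rest, general growth blockers included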;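 note: wells of about 50 µL received 100 nL stock; 0% = vehicle wells and 100% = reference inhibitor wells; whole bacteria with a GFP reporter of the hypoxia response; strong numbers were not always called active; many hits fall short of the cut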
RN4220 kill – kills Staphylococcus aureus RN4220; hit rate 0.33% among 330,000; AID 1259311; S. aureus RN4220 growth, OD600, 16 h; inhibition, % (test concentration not listed);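 active = z-score of -3 or lower and OD600 up to 0.18 on both plates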;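 note: plate controls were untreated cells for no effect and reference antibiotic for full effect; stock transfer was 100 nL into about 80 µL; one replicate is shown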
BJeLR viability – kills HRASV12-expressing BJeLR cells | BJeLR (HRASV12) viability, CellTiter-Glo ATP luminescence, 48 h; reference of the scale not given here | inhibition, % (concentration not given with the values) | hit rate 0.17% among 300,000 | AID 1554;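 active = replicate mean above 50%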;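 note: 50 nL library stock added to about 25 µL; numbers are from one replicate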
PrP 5UTR inh – inhibition of PrP 5' UTR reporter expression; cell-based PrP 5' UTR mRNA reporter, plate reader; hit rate 0.35% among 340,000; AID 488862; inhibition, % (test concentration not listed);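 active = every replicate at 50% or more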;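 note: 0 = median of the neutral control wells; tested in H4 reporter cells; numbers are from one replicate; inactives centre near -14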
Sa ugtP lethal – growth inhibition of S. aureus ugtP deletion strain. growth inhibition, % (no concentration beside the values). hit rate 0.54% among 330,000. S. aureus RN4220 ugtP deletion, OD600 growth, 16 h; some inactives read as strong as hits;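 active = z-score under -3 and OD600 up to 0.15 on both plates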;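 note: plate controls were untreated wells for no effect and antibiotic for full effect; wells of about 80 µL received 100 nL stock; the first replicate is given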
Bead autofluor – flagged as autofluorescent in microsphere protease counterscreen. compound autofluorescence counterscreen, microsphere flow cytometry; active compounds read high. fluorescence intensity (no concentration beside the values). AID 624483. hit rate 3.1% among 360,000;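 active = at least 3 SD above the mean of all compounds, about 16000 in these data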;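 note: 100 nL of 1 mM stock went into each well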
Mtb hypoxia rep growth – also measured in Mtb hypoxia rep; calls as there; growth inhibition, %; measured here: M. tuberculosis growth (absorbance);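 0% = vehicle and 100% = reference antibiotic; read after six days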
* = called active by the depositor; . = no result given. Random draw from the library; about 4% have a hit in one of these screens.

entry	smiles	BJeLR viability	Mtb hypoxia rep	RN4220 kill	Sa ugtP lethal	PrP 5UTR inh	Bead autofluor	Mtb hypoxia rep growth
1	CCCN1CCN(CCNC(=O)Nc2ccccc2Cl)CC1	-3	9	6.3	12	-13	3698	8
2	O=C(Cn1cc(C(F)(F)F)ccc1=O)N/N=C/c1ccc(Cl)cc1Cl	8	.	.	.	-14	1977	.
3	CCCn1nc(C(=O)Nc2cc(S(=O)(=O)Nc3ccc(OC)cc3)ccc2O)c2ccccc2c1=O	.	10	-8.9	34	-9	3704	5
4	C/C(O)=C(\C#N)P(=O)(c1ccccc1)c1ccccc1	-4	-6	4.0	7	-12	.	8
5	Cc1ccc(C(=O)NCCc2cccc(Cl)c2)cc1[N+](=O)[O-]	-5	-13	2.2	1	-54	2186	-9
6	O=C(CCc1nc(-c2ccccc2F)no1)N1CCC2(CC1)OCCO2	2	.	1.7	0	-1	4982	.
7	OCCn1c(C(F)(F)F)nc2ccccc21	0	-6	-1.1	-2	-14	12138	2
8	Cc1ccc(S(=O)(=O)Cc2ccc(C(=O)OCc3ccccc3)cc2)cc1	8	.	2.9	8	-12	2819	.
9	Cc1nn(C2CCOC(C)(C)C2)c2c1C(c1ccc3c(c1)OCO3)SCC(=O)N2 (stereo not given)	7	-3	2.1	2	1	2867	8
10	CN1CCN(C(=O)CSc2nnc(COc3ccccc3)o2)CC1	6	0	3.1	3	6	3218	-7
11	Cc1ccc(S(=O)(=O)n2c(N)nc3ccccc32)cc1	2	5	2.1	-14	13	4562	16
12	O=C(O)CCC(=O)Nc1ccc(-c2nc3ccc(C(=O)c4ccccc4)cc3[nH]2)cc1	12	12	4.0	12	-34	3878	-1
13	CCOc1ccc(N2C(=O)CC(NCCNc3ccc(C(=O)c4cccs4)cc3)C2=O)cc1 (stereo not given)	17	-16	0.6	1	-9	3808	-1
14	COC(=O)c1ccc2c(c1)N(Cc1nc(-c3ccc(Cl)cc3)oc1C)C(=O)C1CCCN21 (stereo not given)	4	-10	-2.0	3	-30	4128	6
15	COC(=O)Nc1sc2c(c1C(N)=O)CCCCCC2	-13	.	-6.0	0	-2	4526	.
16	COc1ccccc1NC(=O)Cn1nc(C(F)(F)F)c2c1CCCC2	-3	6	2.8	-11	-20	25001*	8
17	Cc1cc(C)c(C#N)c(OCC(=O)c2ccc(Br)cc2)n1	4	2	7.4	-3	0	23283*	1
18	CC(=O)Nc1ccc(S(=O)(=O)NC2(C(F)(F)F)C(=O)Nc3c2c(=O)n(C)c(=O)n3C)cc1 (stereo not given)	15	2	-2.1	2	.	10976	11
19	COc1cccc(C(=O)Nc2c3c(nn2-c2ccc([N+](=O)[O-])cc2)CS(=O)(=O)C3)c1	4	13	3.0	0	-6	5687	1
20	CCOc1cc(C(=O)Nc2ccc(C(=O)NCCN(CC)CC)cc2)ccc1OCC(=O)N1CCOCC1	.	12	2.8	3	-10	5283	0
21	CCC(C)c1ccc(NC(=O)CC(C)=O)cc1 (stereo not given)	-5	-5	-0.3	-4	-4	22794*	1
22	O=C(COC(=O)C1CCCCC1)Nc1cc([N+](=O)[O-])ccc1F	7	1	1.0	5	-20	4754	6
23	CC(C)(C)c1ccc(NC(=O)N2CCN(c3ccc([N+](=O)[O-])cn3)CC2)cc1	-8	7	-0.1	-2	-2	4128	11
24	COCCCN=Cc1c(-c2ccccc2)[nH]n(-c2nc3ccccc3s2)c1=O	17	10	3.4	7	-8	4366	1
25	CCn1c(CNc2cccc(C(F)(F)F)c2)n[nH]c1=S	-6	4	2.9	-7	-9	2554	10
26	O=C(CCN1CCN(c2ccccc2F)CC1)c1ccc(Br)cc1	13	.	3.8	7	-8	2374	.
27	CSCCC(NS(=O)(=O)c1ccc(C)cc1)C(=O)NNC(=O)c1csc(N2CCOCC2)n1 (stereo not given)	7	12	5.4	3	-11	6672	4
28	COn1c(SCc2ccc(C)cc2C)nc2ccccc2c1=O	1	2	1.3	-22	-3	5297	14
29	Cc1ccccc1NS(=O)(=O)c1ccc2[nH]c(=O)[nH]c2c1	4	-2	2.5	5	-16	4042	-7
30	Cc1cnc2cc(Cl)ccc2c1SCC(=O)O	0	7	2.2	-1	-22	4902	-3
31	O=C(CSc1n[nH]c(-c2ccco2)n1)Nc1ccccc1F	-2	5	7.1	13	-24	3616	11
32	O=C(CSc1nnc(-c2cccs2)n1CC1CCCO1)N1CCCC1 (stereo not given)	-13	8	2.2	5	-25	3499	3
33	CCCC(C)c1nnc(NC(=O)C2CC(=O)N(CCc3ccc(F)cc3)C2)s1 (stereo not given)	-7	4	5.4	1	0	3770	4
34	Cn1c(N)c(C(=O)COC(=O)/C=C/c2cccc(Br)c2)c(=O)n(C)c1=O	.	6	3.8	-12	-12	3620	2
35	Cc1ccc(C2(c3noc(CN(C)Cc4cnn(C)c4)n3)CCCC2)cc1	2	-4	9.1	10	1	3389	5
36	C/C(=N\NC(=O)c1ccncc1)c1cccc(NC(=O)c2ccc(C(C)(C)C)cc2)c1	-4	.	.	.	-74	5339	.
37	COc1ccccc1CNC(=O)COC(=O)c1cccnc1SCC(=O)NCc1ccccc1OC	7	11	-9.6	7	-37	4503	0
38	COc1ccccc1-n1cc(-c2ccc(Cl)cc2)[nH]c1=O	-4	8	5.6	2	5	1909	0
39	CCOc1ccc(NC(=O)C2CC(=O)N=C(N)S2)cc1 (stereo not given)	-7	7	-1.7	-5	-11	9363	10
40	Cc1cc(C)c(C#N)c(SCC(=O)NN2CC(=O)N(c3ccccc3F)CC2=O)n1	1	-4	7.1	19	6	2056	-2
41	COc1ccccc1C(=O)NCCC(=O)NCC(c1ccc(F)cc1)N1CCOCC1 (stereo not given)	-5	-5	0.9	2	-10	6022	5
42	O=Cc1c(NC2CCCCC2)c2ccccc2[nH]c1=O	3	3	-0.7	4	-30	4129	9
43	CCCc1cc(=O)oc2cc3occ(C)c3cc12	-8	12	1.1	-8	-2	4060	4
44	CCCC(C)NC(=O)c1ccc(F)cc1 (stereo not given)	-2	.	-1.0	2	-6	3233	.
45	COCCNc1nc2sc3c(c2c(=O)n1Cc1ccco1)CCCCC3	8	-7	7.9	8	-77	2323	2
46	CC12CN3CCN(CC(C3)C1=NNC(=O)c1ccccc1N)C2	.	14	2.6	7	.	.	13
47	CSc1nc2c(c(=O)[nH]1)C(c1ccccc1Cl)CC(=O)N2 (stereo not given)	-6	6	3.7	3	-20	4081	10
48	Fc1ccccc1Nc1nc(N2CCOCC2)nc(N2CCOCC2)n1	17	1	2.3	5	-12	3449	2
49	COCc1cc(=O)[nH]c(-c2ccc(C(F)(F)F)cc2)n1	8	3	0.7	0	.	3365	-6
50	N#C/C(=C\c1cccs1)C(=O)Nc1nccs1	-5	.	.	.	-73	4527	.
51	O=C1c2ccccc2C(Nc2ccc(Cl)cn2)N1c1cccnc1 (stereo not given)	-7	6	-0.9	-3	14	6123	9
52	Cc1ccc(C(=O)Nc2ccc(F)c(S(=O)(=O)N3CCOCC3)c2)s1	.	2	-0.8	-4	-31	3078	1
53	CCN1CCN(C(=O)c2ccccc2N(Cc2ccccc2)S(C)(=O)=O)CC1	7	4	-0.3	-1	-14	21470*	5
54	CC(C)C(NC(=O)C1CCCCC1)C(=O)N1CCN(c2ccc(F)cc2)CC1 (stereo not given)	4	6	3.7	5	-29	5708	0
55	O=C(O)CCC/C=C\C[C@@H]1[C@@H](/C=C/[C@@H](O)COc2cccc(Cl)c2)[C@H](O)C[C@@H]1O	14	.	.	.	-23	4503	.
56	COc1ccccc1NC(=O)c1ccccc1NS(C)(=O)=O	5	.	1.4	-3	-15	4900	.

Additional structures follow:
entry	smiles	BJeLR viability	Mtb hypoxia rep	RN4220 kill	Sa ugtP lethal	PrP 5UTR inh	Bead autofluor	Mtb hypoxia rep growth
57	O=C(CCN1C(=O)c2ccccc2S1(=O)=O)Nc1ccc(F)cc1F	2	-2	2.5	-2	-26	5088	4
58	NC(=S)NN=C1CCOc2ccc(Cl)cc21	.	.	1.1	-2	.	.	.
59	Nc1nonc1-n1nnc(C(=O)N/N=C/c2ccncc2)c1-c1cccs1	0	.	.	.	6	8369	.
60	COc1cc(NC(=S)NC(=O)C(C)C)ccc1NC(=O)c1cc2ccccc2o1	4	-7	4.2	8	-21	3505	5
61	Cc1ccc(S(=O)(=O)Nc2cnc3ccccc3c2)cc1	8	16	12	7	-5	4337	-6
62	COc1cccc(NC(=S)NC(=O)/C=C/c2ccc(F)cc2)c1	-7	0	-2.2	-1	-14	3227	2
63	Cc1ccc(SC2CC(=O)N(c3ccc4c(c3)OCCO4)C2=O)cc1 (stereo not given)	-1	16	13	5	-14	4866	9
64	COc1ccc(-n2ccnc2SCC(=O)NCc2ccco2)c(OC)c1	1	0	5.9	4	-3	5315	-4

Entries of single compounds as entered above. Order of values: BJeLR viability, Mtb hypoxia rep, RN4220 kill, Sa ugtP lethal, PrP 5UTR inh, Bead autofluor, Mtb hypoxia rep growth
`NC(=S)NN=C1CCOc2ccc(Cl)cc21` as listed: ., ., 1.1, -2, ., ., .
`Cc1ccc(S(=O)(=O)Nc2cnc3ccccc3c2)cc1` as listed: 8, 16, 12, 7, -5, 4337, -6
`O=C(CCN1C(=O)c2ccccc2S1(=O)=O)Nc1ccc(F)cc1F` as listed: 2, -2, 2.5, -2, -26, 5088, 4

Additional compounds
entry	smiles	BJeLR viability	Mtb hypoxia rep	RN4220 kill	Sa ugtP lethal	PrP 5UTR inh	Bead autofluor	Mtb hypoxia rep growth
65	COc1ccc(CN(CC(=O)NC2CCCCC2)C(=O)CCCC(=O)Nc2ccccn2)cc1	-3	16	0.0	8	-19	2711	6
66	COc1ccc2c(c1)C(=O)CCC2c1ccccc1 (stereo not given)	-12	2	1.3	4	-19	4130	18
67	O=C(O)c1ccccc1C(=O)N1CC=C(c2ccccc2)CC1	17	.	.	.	-1	3481	.
68	O=C(CCSc1ccc(Cl)cc1)NC1CCCCC1	14	-4	-2.7	-11	-62	2517	6

Of the compounds above, these contain an aryl thioether with sulfur outside any ring.
entry	smiles	BJeLR viability	Mtb hypoxia rep	RN4220 kill	Sa ugtP lethal	PrP 5UTR inh	Bead autofluor	Mtb hypoxia rep growth
10	CN1CCN(C(=O)CSc2nnc(COc3ccccc3)o2)CC1	6	0	3.1	3	6	3218	-7
28	COn1c(SCc2ccc(C)cc2C)nc2ccccc2c1=O	1	2	1.3	-22	-3	5297	14
30	Cc1cnc2cc(Cl)ccc2c1SCC(=O)O	0	7	2.2	-1	-22	4902	-3
31	O=C(CSc1n[nH]c(-c2ccco2)n1)Nc1ccccc1F	-2	5	7.1	13	-24	3616	11
32	O=C(CSc1nnc(-c2cccs2)n1CC1CCCO1)N1CCCC1 (stereo not given)	-13	8	2.2	5	-25	3499	3
37	COc1ccccc1CNC(=O)COC(=O)c1cccnc1SCC(=O)NCc1ccccc1OC	7	11	-9.6	7	-37	4503	0
40	Cc1cc(C)c(C#N)c(SCC(=O)NN2CC(=O)N(c3ccccc3F)CC2=O)n1	1	-4	7.1	19	6	2056	-2
47	CSc1nc2c(c(=O)[nH]1)C(c1ccccc1Cl)CC(=O)N2 (stereo not given)	-6	6	3.7	3	-20	4081	10
63	Cc1ccc(SC2CC(=O)N(c3ccc4c(c3)OCCO4)C2=O)cc1 (stereo not given)	-1	16	13	5	-14	4866	9
64	COc1ccc(-n2ccnc2SCC(=O)NCc2ccco2)c(OC)c1	1	0	5.9	4	-3	5315	-4
68	O=C(CCSc1ccc(Cl)cc1)NC1CCCCC1	14	-4	-2.7	-11	-62	2517	6
